# Pf growth 96h – P. falciparum growth inhibition at 96 hour, primary screen for plastid delayed-death inhibitors; P. falciparum luciferase reporter growth, 96 h; Potency, µM (titrated, usually from 28.7 µM), inactives show at the highest dose activity change, negative = inhibition, most hits filed as inhibitors; 320,000 tested, 6.9% active; AID 504834
#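 P. falciparum expressing integrated firefly luciferase grown in erythrocytes (2% hematocrit, 0.05% parasitemia final) with compounds for 96 hours at 37 C, 5% CO2. Growth inhibition read as loss of luminescence after adding luciferase detection reagent.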
# LmPK inh – LmPK (Leishmania mexicana) enzyme inhibition | purified LmPK, Kinase-Glo ATP luminescence, 1 h | Potency, µM (series often up to 57.5 µM), without a hit: at the highest dose activity change, negative = inhibition, hits mostly inhibitors | AID 1721 | 290,000 tested, 0.37% active | Q27686
# Target sequence (Q27686 whole entry, looked up): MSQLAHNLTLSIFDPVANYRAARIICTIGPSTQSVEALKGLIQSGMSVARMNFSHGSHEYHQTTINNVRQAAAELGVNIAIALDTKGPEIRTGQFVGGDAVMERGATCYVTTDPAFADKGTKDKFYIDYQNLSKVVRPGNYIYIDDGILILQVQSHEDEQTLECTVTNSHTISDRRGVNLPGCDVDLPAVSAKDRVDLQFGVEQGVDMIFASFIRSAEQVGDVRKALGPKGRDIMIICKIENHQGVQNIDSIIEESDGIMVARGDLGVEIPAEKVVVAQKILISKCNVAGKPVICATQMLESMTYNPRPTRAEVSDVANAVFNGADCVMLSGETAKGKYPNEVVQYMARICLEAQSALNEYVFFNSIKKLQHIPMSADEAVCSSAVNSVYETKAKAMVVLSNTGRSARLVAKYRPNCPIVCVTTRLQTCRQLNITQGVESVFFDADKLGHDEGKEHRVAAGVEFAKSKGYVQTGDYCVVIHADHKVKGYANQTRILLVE
#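 Kinase-Glo luminescence read after 1 h RT reaction of 0.1 nM LmPK with 0.5 mM PEP and 0.1 mM ADP. Activity scaled between uninhibited and enzyme-free controls.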
# TbPYK inhibitor – inhibitors of Trypanosoma brucei pyruvate kinase; Q57TT1; AID 624173; Potency, µM (top dose mostly 76.8 µM), inactives show top-dose activity, negative = inhibition, usual class: inhibitors; 410,000 tested, 0.12% active; TbPYK enzyme, Kinase-Glo Plus ATP luminescence, 45 min; note: nearly all actives have a fitted effect of over 50% in size
#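 Luminescence from Kinase-Glo Plus, added after a 45-minute room-temperature reaction, served as the end-point read-out. The enzyme and substrate were preincubated with compound before ADP (130 uM final) initiated turnover. Concentration-effect curves came from normalized qHTS data.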
# HCV inhibitor – inhibitors of hepatitis C virus infection | Huh7.5.1 HCVcc-Cre infection, luciferase reporter, 44 h | Potency, µM (top dose mostly 41.8 µM), for inactives: top-dose activity change, negative = inhibition, actives largely listed as inhibitors | 340,000 tested, 3.4% active
#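 Cells (1,000/well) were plated 4 h before compound, then infected with HCVcc-Cre virus (~0.5 moi). After 44 h further culture, infection was read as luciferase luminescence following a 15 min substrate incubation at room temperature.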
# Starred values were filed as active, the others as inactive; ? = inconclusive; . = no result given; & = joins results of further samples; [ ] = another dose, or the depositor's remark. Calls come from the whole dose curve; as a rule, active = well fitted curve in the direction sought with a large enough effect; inconclusive = small, poorly fitted or top-dose-only effect, or another doubt; inactive = no such curve, though single readings can be large; an effect the other way counts as inactive or inconclusive. % is set by controls: 0 for no effect and ±100 for the full control effect; potency is the fitted concentration of half-maximal effect.
SMILES,Pf growth 96h,LmPK inh,TbPYK inhibitor,HCV inhibitor
CC(C)NCC(O)COc1cccc2[nH]ccc12 (configuration not stated),0.85µM*,-4%,7%,.
CC[C@H]1OC(=O)C[C@@H](O)[C@H](C)[C@@H](O[C@@H]2O[C@H](C)C[C@H](N(C)C)[C@H]2O)[C@@H](CC=O)C[C@@H](C)C(=O)C=C[C@]2(C)O[C@H]2[C@@H]1C,0.33µM*,-1%,.,.
CN1CCN(C2=Nc3cc(Cl)ccc3Nc3ccccc32)CC1,?,-1%,-7%&2%,0%[8.37 µM]
CCC1OC(=O)C[C@@H](O)[C@H](C)[C@@H](OC2OC(C)CC(N(C)C)C2O)[C@@H](CC=O)C[C@@H](C)C(=O)/C=C/[C@]2(C)OC2C1C (some centres not stated),0.0038µM*,.,3%,.
c1ccc2c(c1)Sc1ccccc1N2CC1CN2CCC1CC2 (configuration not stated),13µM*,4%,0%&-7%,16%
CC[C@H](C)[C@H]1O[C@]2(CC[C@@H]1C)C[C@@H]1C[C@@H](CC=C(C)[C@@H](O[C@H]3C[C@H](OC)[C@@H](O[C@H]4C[C@H](OC)[C@@H](O)[C@H](C)O4)[C@H](C)O3)[C@@H](C)C=CC=C3CO[C@@H]4[C@H](O)C(C)=C[C@@H](C(=O)O1)[C@]34O)O2,.,.,2%,?
CC(C)(C)NCC(O)c1ccc(O)c(CO)c1 (configuration not stated),26%,.,1%,.
CN(Cc1ccco1)c1ncnc2ccc(-c3cccnc3)cc12,?,.,.,.
CNCC[C@H](Oc1ccc(C(F)(F)F)cc1)c1ccccc1,?,.,7%,4µM*
CCN(CC)Cc1cc(Nc2ccnc3cc(Cl)ccc23)ccc1O,0.0033µM*,-11%,4%,7.9µM*
O=S(=O)(NCCOCC(F)(F)F)c1ccc2oc3ccccc3c2c1,0%,4%,1%,?
COc1cc([C@H]2c3cc4c(cc3[C@@H](O[C@H]3O[C@H]5CO[C@@H](C)O[C@H]5[C@@H](O)[C@@H]3O)[C@@H]3COC(=O)[C@H]23)OCO4)cc(OC)c1O,13µM*,.,-3%,.
O=C(c1ccc(NC(=S)Nc2ccc(Cl)c(Cl)c2)cc1)N1CCCC1,-1%,-1%,16%,3%
Fc1ccc(C(c2ccc(F)cc2)N2CCN(CC=Cc3ccccc3)CC2)cc1,?,.,-6%,.

# Given as tab-separated lines: part of the list above.
Structure	Pf growth 96h	LmPK inh	TbPYK inhibitor	HCV inhibitor
CC(C)NCC(O)COc1cccc2[nH]ccc12 (configuration not stated)	0.85µM*	-4%	7%	.
CC[C@H]1OC(=O)C[C@@H](O)[C@H](C)[C@@H](O[C@@H]2O[C@H](C)C[C@H](N(C)C)[C@H]2O)[C@@H](CC=O)C[C@@H](C)C(=O)C=C[C@]2(C)O[C@H]2[C@@H]1C	0.33µM*	-1%	.	.
CN1CCN(C2=Nc3cc(Cl)ccc3Nc3ccccc32)CC1	?	-1%	-7%&2%	0%[8.37 µM]
CCC1OC(=O)C[C@@H](O)[C@H](C)[C@@H](OC2OC(C)CC(N(C)C)C2O)[C@@H](CC=O)C[C@@H](C)C(=O)/C=C/[C@]2(C)OC2C1C (some centres not stated)	0.0038µM*	.	3%	.
c1ccc2c(c1)Sc1ccccc1N2CC1CN2CCC1CC2 (configuration not stated)	13µM*	4%	0%&-7%	16%
CC[C@H](C)[C@H]1O[C@]2(CC[C@@H]1C)C[C@@H]1C[C@@H](CC=C(C)[C@@H](O[C@H]3C[C@H](OC)[C@@H](O[C@H]4C[C@H](OC)[C@@H](O)[C@H](C)O4)[C@H](C)O3)[C@@H](C)C=CC=C3CO[C@@H]4[C@H](O)C(C)=C[C@@H](C(=O)O1)[C@]34O)O2	.	.	2%	?
CC(C)(C)NCC(O)c1ccc(O)c(CO)c1 (configuration not stated)	26%	.	1%	.
CN(Cc1ccco1)c1ncnc2ccc(-c3cccnc3)cc12	?	.	.	.
CNCC[C@H](Oc1ccc(C(F)(F)F)cc1)c1ccccc1	?	.	7%	4µM*

# Assay outcomes as filed in PubChem BioAssay.

# The list is partial; count on the stated rates, not on these rows.
